High-throughput results: PubChem, Fisher Drug Discovery Resource Center
NPYLR7 agonist: agonists of mosquito NPYLR7 receptor, primary screen, cell-based, Aedes aegypti, calcium fluorescence, mosquito biting behavior | HEK293T NPYLR7/Galpha15, GCaMP6s calcium fluorescence | activation, % at 10 µM | 270,000 compounds, 0.15% hits | AID 1259423, 2018; in the data active means activation above about 40%;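 further: 0% = vehicle and 100% = reference agonist at the receptor; some compounds past the cut are filed as inactive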
NPYLR7 agonist max-min: recorded beside NPYLR7 agonist, whose call it bears; activation, %; measured here: Max-Min RFU normalised activation; some inactives read as strong as hits;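 span of the calcium signal over five minutes; 0% = vehicle and 100% = native peptide agonist; compound fluorescence can raise it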
* = called active by the depositor; & = joins results of further samples. Only part of the results is shown; count on the stated rates, not on these rows.

Screens in order – NPYLR7 agonist max-min, NPYLR7 agonist
- CC1=NNc2nc3c(c(=O)n(Cc4c(Cl)cccc4Cl)c(=O)n3C)n2C1
→ 4.4, 0.8
- O=S(=O)(Nc1nccnc1N1CCN(S(=O)(=O)c2cccc3ccccc23)CC1)c1ccc(Oc2ccccc2)cc1
→ -9.2, -2.1
- COc1cccc(C(=O)N(CCCn2ccnc2)c2nc3c(C)c(C)ccc3s2)c1OC
→ -17.7, -10.0
- O=[N+]([O-])c1cc(Cl)ccc1Oc1cccc2ccccc12
→ -2.4, 1.5
- CCCCc1ncc(CN2CCCN(c3ccc(F)cc3)CC2)[nH]1
→ 0.3, 1.9
- CSCC1CCN(C(=O)Nc2cccc(N(C)C(C)C)c2)C1 (stereo not given)
→ -6.9, -6.3
- COc1cc2nc(-c3cccc4c3OCCO4)[nH]c(=O)c2cc1OC
→ 7.1, 8.9
- O=C(NN=Cc1cccc(O)c1)c1ccccn1
→ -9.8, -6.3
- COCCn1c(=NC(=O)c2cc(Cl)sc2Cl)sc2cc(S(C)(=O)=O)ccc21
→ 11.4, 12.3
- CSc1ccc(CN2CCC2(C)C(=O)N2CCN(C(=O)c3ccco3)CC2)cc1 (stereo not given)
→ 0.7, 0.4
- CSc1ccc(CC(=O)N(C)CC2CCN(CCc3ccc(Cl)cc3)CC2)cc1
→ -3.1, -1.7
- C=CCN(CC(=O)N1CCc2sccc2C1c1ccc(F)cc1)C(=O)c1cccc(OC)c1 (stereo not given)
→ -3.6, -8.3
- CCc1nc2ccc(C(=O)Nc3cccc(OC)c3)cn2c1N(C)C(=O)c1ccncc1
→ 16.0, 18.2
- COc1cc2c(cc1OC)C(/C=C/c1ccc(OC)c(OC)c1OC)=NCC2
→ 0.5, 1.6
- CCn1ncnc1CN1CCN(C)C(C(=O)O)C1 (stereo not given)
→ 3.7&3.6, 6.4&0.4
- S=c1[nH]nc(COc2ccc(Cl)cc2Cl)o1
→ 8.7, 10.2
- CCc1ccc(NC(=O)CSc2ncc(S(=O)(=O)c3ccc(C)cc3C)c(=O)[nH]2)cc1
→ -0.9, 0.7
- CC1CCc2c(C(=O)Nc3sc4c(c3C(N)=O)CCCC4)csc2C1 (stereo not given)
→ 0.1, 0.4
- COc1cccc(NC(=O)N(Cc2nnc3n2CCCCC3)c2cccc(OC)c2)c1
→ 9.1, 9.5
- COCc1nc(CC#N)nc(N2CCN(C(=O)c3ccccc3Cl)CC2)c1Cc1ccccc1F
→ 28.2, 33.0

Shown field by field: part of the list above
O=[N+]([O-])c1cc(Cl)ccc1Oc1cccc2ccccc12
  NPYLR7 agonist max-min: -2.4; NPYLR7 agonist: 1.5
CCCCc1ncc(CN2CCCN(c3ccc(F)cc3)CC2)[nH]1
  NPYLR7 agonist max-min: 0.3; NPYLR7 agonist: 1.9
CSCC1CCN(C(=O)Nc2cccc(N(C)C(C)C)c2)C1 (stereo not given)
  NPYLR7 agonist max-min: -6.9; NPYLR7 agonist: -6.3
COc1cc2nc(-c3cccc4c3OCCO4)[nH]c(=O)c2cc1OC
  NPYLR7 agonist max-min: 7.1; NPYLR7 agonist: 8.9

Later entries:
Screens in order – NPYLR7 agonist max-min, NPYLR7 agonist
- Cc1occc1C(=O)N1CCN(S(=O)(=O)c2c(Cl)cccc2Cl)CC1
→ 10.0, 6.7
- O=C(O)CCc1nc2sc3c(c2c(=O)[nH]1)CCCC3
→ 7.1&-5.3, 2.8&-2.2
- COc1ccc(SCCC(=O)Nc2n[nH]c(C(F)(F)F)n2)cc1
→ 4.2, 8.6
- COc1ccc(C(=O)OCCN=C2NS(=O)(=O)c3ccccc32)c(OC)c1
→ 11.9, 9.2
- Cc1ccc(NC(=O)N2CCCC(OCc3cc(F)cc(F)c3)C2)cc1 (stereo not given)
→ -2.0, -2.7
- Cc1ccc(-n2nc(C(C)(C)C)cc2NC(=O)CN(Cc2ccccc2)C(=O)Nc2ccccc2F)c(C)c1
→ -1.6, -3.4
- CC1CCC(NC(=O)Cc2ccc(-n3cccc3)cc2)CC1 (stereo not given)
→ -3.5, -2.8
- Cc1cc(C)c2c(n1)sc1c(=O)n(NC(=O)Nc3ccc(Cl)cc3)c(C)nc12
→ 7.1, 1.1
- CO[C@H]1CN(C(=O)c2cccc3[nH]c(C)nc23)CC[C@H]1N
→ -9.5, -0.4
- CC(=O)Nc1ccc(S(=O)(=O)NCCc2csc3nc(-c4ccc(F)cc4)nn23)cc1
→ -6.9, -5.3
- O=C(NCc1cn[nH]c1-c1ccc(Cl)cc1)C1CC2(CCNCC2)CN1 (stereo not given)
→ 0.9, 9.3
- O=C(c1ccccc1SC(F)F)N1CCN(c2ncnc3c2nnn3-c2cccc(F)c2)CC1
→ -15.1, -7.6
- CCOc1ccc2nc(S(=O)(=O)NC(=O)C3(C)CCN3C(=O)Cc3cc(C)cc(C)c3)sc2c1 (stereo not given)
→ 6.2, 5.1
- CCn1c(SCC(=O)/C(C#N)=C(\C)N)nnc1-c1ccccc1OC
→ -1.8, 5.4
- OCCc1ccccc1
→ 5.7, 5.5
- Cc1ccc(Oc2nc(N3CCOCC3)nc3c2CNCC3)cc1
→ 3.3, 14.5
- N#Cc1c(N2C(=O)C3C4C=CC(C4)C3C2=O)sc2c1CCCC2 (stereo not given)
→ -14.1, -13.2
- COCCN(Cc1ccc(OC)c(OS(=O)(=O)c2ccc(NC(C)=O)cc2)c1)C(=O)CC(C)(C)C
→ 0.5, -3.7
- NC(=O)N1CCCC1C(=O)NNC(=O)CC12CC3CC(CC(C3)C1)C2 (stereo not given)
→ -10.8, -5.5
- CC(NC(=O)CSc1ccncc1)C(C)c1ccccc1 (stereo not given)
→ -11.9, -2.9

Following part.
Screens in order – NPYLR7 agonist max-min, NPYLR7 agonist
- CC(C)Cc1noc(CS(=O)(=O)Cc2ccc(Cl)c(Cl)c2)n1
→ -0.2, 2.4
- CC(Oc1ccc(Cl)cc1)C(=O)N(C1CCS(=O)(=O)C1)N(C)C (stereo not given)
→ 8.2, 13.0
- Cc1cc(NC(=O)CSc2[nH]c(=O)cc(C(F)(F)F)c2C#N)no1
→ 5.7, 5.2
- COc1ccc(C(=O)Nc2ccccc2C)c(OC)c1OC
→ -12.5, -14.5
- O=C(CN1CCc2sccc2C1)Nc1ccc(F)c(F)c1
→ -0.6, 0.3
- COC(=O)C1=C(C)N=c2sc(=Cc3cccc(Cl)c3)c(=O)n2C1c1cccs1 (stereo not given)
→ -0.1, -1.6
- CS(=O)(=O)NCC(=O)N1CCCC(Nc2ccc(F)c(F)c2)C1 (stereo not given)
→ 8.5, 12.6
- NC(=O)c1sc2nc3c(c(-c4ccco4)c2c1N)CCCC3
→ 11.3, 7.3
- COc1cc(C2C(C(=O)OC3CCCCC3)=C(C)NC3=C2C(=O)CCC3)cc(Cl)c1O (stereo not given)
→ -2.3, 0.6
- CC(=O)Nc1ccc(S(=O)(=O)N2CCC(c3cn(Cc4cccc(F)c4)c4ccccc34)CC2)cc1
→ 3.8, 1.3
- Cc1cc(/C=N\NC(=O)COc2cccc3cccnc23)c(C)n1-c1cccc([N+](=O)[O-])c1
→ -10.6, -7.0
- Cc1ccc(N=Nc2c(N)[nH]n(-c3ccccc3)c2=O)cc1
→ -3.1, -2.5
- CCOC(=O)c1sc(NC(=O)C(C)Oc2ccccc2OC)c(C(=O)OCC)c1C (stereo not given)
→ -4.1, 0.8
- CC(=O)Oc1c(-c2ccc(NC(=O)c3ccc(F)cc3)cc2)c(-c2cccc(N(C)C)c2)nn1-c1ccc(C)cc1
→ 0.0, -6.7
- N#CC1CCCCC1OC(=O)c1csc(-c2cnccn2)n1 (stereo not given)
→ -6.5, 6.9
- CN(C)Cc1ccc(-c2ccc(O)cc2)nc1
→ -3.5, -3.3
- CCOC(=O)c1sc(=NC(=O)c2c(F)cccc2F)n(C)c1C
→ 0.2, -1.2
- Cn1nnc2c(SCC(=O)N3CCOCC3)ncnc21
→ 9.6, 0.4
- O=C(NCC1CCCO1)C1CCN(C2CCN(C(=O)CCc3ccccc3)CC2)CC1 (stereo not given)
→ 1.6, 6.3
- OC12CCC(CC1)N(Cc1ccc(F)cc1)C2CN1CCOCC1 (stereo not given)
→ 3.4, -6.6

Next section:
Screens in order – NPYLR7 agonist max-min, NPYLR7 agonist
- C=C1C(=O)OC23C(CC[C@@]4(C)OC24)C(C)CC[C@@H]13 (stereo not given in full)
→ 8.6, 9.0
- Brc1cc2c(cc1CSc1ncccn1)OCO2
→ 10.5, 8.6
- Cc1ccc(S(=O)(=O)N2CCN(CN3C(=O)c4ccccc4C3=O)CC2)cc1
→ -4.3, -2.4
- COc1ccc(C2c3ccsc3CCN2CC(=O)N2CCN(C(=O)c3ccc(Cl)c(Cl)c3)C(C)C2)cc1 (stereo not given)
→ 1.7, 8.6
- COc1ccccc1-c1nc2cc(C)ccn2c1NC(=O)COc1ccccc1
→ 6.0, 10.0
- O=C(CSc1nnc(-c2ccc3c(c2)OCO3)o1)c1ccc2c(c1)CCC2
→ 13.0, 19.0
- CC1(C(=O)N2Cc3ccccc3C2)CCN1C(=O)CCc1ccc(Cl)cc1Cl (stereo not given)
→ -0.1, 0.9
- COc1ccc(-c2cc3c(=O)n(CC(=O)Nc4ccc(C)cc4C)ccn3n2)cc1OC
→ 0.8, 2.0
- CCOC1=NN(c2ccc([N+](=O)[O-])cc2)C(=O)/C1=C\c1ccc(OC)cc1OC
→ 7.2, 1.1
- C=CC(C)(O)CNCc1nc(-c2ccc3c(c2)OCO3)no1 (stereo not given)
→ 17.6, 9.7
- CCOc1c(C)cnc2c1c(=O)n(CC(=O)N1CCCCC1)c(=O)n2C
→ -2.9, 0.8
- CCS(=O)(=O)N1CCC2(CC1)NC(=O)c1cc(C)ccc1N2
→ 13.2, 2.7
- Cc1ccc(-n2nc(-c3ccccc3)cc2C(=O)N2CCN(c3ccccc3F)CC2)c(C)c1
→ 6.6, -0.8
- COc1ccccc1C(=O)NCC1Cc2cc(Oc3ccccc3)ccc2O1 (stereo not given)
→ 2.1, 3.5
- COc1cc(-c2cc(C(=O)NCC3CCCO3)c3ccccc3n2)cc(OC)c1OC (stereo not given)
→ 29.0, 22.1
- Cc1cnc2c(C(=O)N3CC[C@@H](c4ccc5c(c4)OCO5)[C@H](O)C3)cnn2c1
→ 2.6, 16.9
- CC(C)(C)Nc1ncnc2c1sc1nc3c(cc12)COC(C)(C)C3
→ 11.7, 12.2
- c1cc[n+](C[n+]2ccccc2)cc1
→ 4.6, 5.8
- O=S(=O)(N=C1C=C2N(CCO)CCOC2(O)c2ccccc21)c1ccc(Cl)cc1 (stereo not given)
→ 5.3, 4.9
- COc1ccc(S(=O)(=O)NC/C=C(\C)CCC=C(C)C)cc1OC
→ -8.1, 0.5

New compounds follow.
Screens in order – NPYLR7 agonist max-min, NPYLR7 agonist
- CC(NC(=O)c1ccc(Br)s1)c1ccc2[nH]c(=O)[nH]c2c1 (stereo not given)
→ -4.2, -2.2
- COC(=O)C1=C(C)N(C)C(=S)NC1c1ccccc1Cl (stereo not given)
→ 9.2, 2.8
- Cc1nn(-c2ccc(F)cc2)c(C)c1C(=O)N1CCN(S(=O)(=O)c2cccc(Cl)c2)CC1
→ -5.2, -2.4
- CSCc1ccc(CNC(C)Cn2cc(C)cn2)o1 (stereo not given)
→ -3.9, 1.7
- CC(=O)c1cccc(-c2cc3c(cn2)nc(NCc2cccc(C)c2)n3C)c1
→ -12.3, -9.3
- O=C(N[C@@H]1CCCCC1NC(=O)C1CCCN(S(=O)(=O)c2ccc(Cl)cc2)C1)c1ccc(F)cc1 (stereo not given in full)
→ 27.0, 28.2
- Cc1cc(=O)c(OCc2ccccc2)cn1CC(=O)N1CCN(c2ccccc2)CC1
→ 0.8, 0.9
- C=C(C)Cn1c(N2CCN(Cc3c(Cl)cccc3Cl)CC2)nc2c1c(=O)[nH]c(=O)n2C
→ -7.3, -7.9
- C=CCN(CC(=O)N1CCc2sccc2C1COc1ccc(F)cc1)CC(O)COCc1ccco1 (stereo not given)
→ 11.9, 14.2
- Cc1csc(CN2CCN(C(=O)c3cc(=O)c4ccccc4o3)CC2)n1
→ -12.7, -7.9
- OCCC1CN(Cc2cccn2-c2cccnc2)CCN1CC1CCCCC1 (stereo not given)
→ -4.8&-1.3, -5.4&0.5
- O=C(c1ccc(CSc2ccccc2F)cc1)N1C2CCC1CC(Oc1ccc3c(c1)OCO3)C2 (stereo not given)
→ 7.0, 4.9
- N#CCc1nc(-c2cc3cc(Cl)cc(Cl)c3oc2=O)cs1
→ 2.2, 9.9
- CCOC(=O)c1cc(-c2ccccc2)sc1NC(=O)/C=C/c1ccccc1Cl
→ -5.1, -2.8
- CS(=O)(=O)CCNCc1ccc(-c2ccc3ncnc(Nc4ccc(OCc5cccc(F)c5)c(Cl)c4)c3c2)o1
→ -24.7, -16.6
- CC1=C(C(=O)OCCc2ccccc2)C(c2ccccc2Cl)NC(=O)N1 (stereo not given)
→ -9.9, -2.8
- N#CC1C(=N)SC(=N)C(C#N)C1c1ccccc1 (stereo not given)
→ 5.5, 9.5
- Cc1c(C(=O)NCc2cccc(C(F)(F)F)c2)cc(-c2ccc(Cl)cc2)n1-c1cccc(F)c1
→ 1.6, -8.3
- COc1ccccc1C(CC(=O)N1CCN(c2cccc(C(F)(F)F)c2)CC1)c1cn(C)c2ccccc12 (stereo not given)
→ 2.8, 0.9

Single records (already shown).
CCCCc1ncc(CN2CCCN(c3ccc(F)cc3)CC2)[nH]1 is listed as NPYLR7 agonist max-min: 0.3; NPYLR7 agonist: 1.9
COc1ccc(-c2cc3c(=O)n(CC(=O)Nc4ccc(C)cc4C)ccn3n2)cc1OC is listed as NPYLR7 agonist max-min: 0.8; NPYLR7 agonist: 2.0
